# AID504770: E. coli YBA685 growth inhibition, screen for V. cholerae RctB inhibitors. E. coli YBA685 rctB-dependent plasmid, OD600 growth, 3 h; stronger effect = lower value. z-score (test concentration not listed). actives 0.27% (n = 130,000). AID 504770;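 active = z-score under -2 on both plates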;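 note: wells of about 30 µL received 100 nL stock; score is relative to mean and SD of the test wells; the first replicate is given; strong numbers were not always called active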
# CapD inh: CapD enzyme inhibition; purified CapD enzyme, fluorescence intensity read-out; stronger effect = lower value; some hits fall short of the stated cut; z-score (concentration not given with the values); actives 0.23% (n = 140,000);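 active = z-score under -4 in either of two replicates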;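 note: stock transfer was 100 nL into about 40 µL; score is relative to mean and spread of the plate; one replicate is shown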
# * hit, by the source's call; · = no result given.
SMILES,AID504770,CapD inh
COc1ccc(-c2nc3cc(NC(=O)c4cc5ccccc5cc4OC)ccc3o2)cc1,·,31
COc1ccc2c(c1)c(=O)c(S(=O)(=O)c1ccccc1)cn2Cc1ccccc1,-1.2,29
C/C(O)=C1/C(=O)NC2(C)CC1c1cc([N+](=O)[O-])ccc1O2 (stereo not drawn),·,-0.36
O=C(c1ccco1)N1CCN(C(=O)C2CC(=O)N(c3ccccc3)C2)CC1 (stereo not drawn),-0.5,-0.23
Cc1cc(C)nc(Sc2ccc(NC(=O)CCl)cc2)n1,·,-0.23
Cc1c(C)c(C)c(CSC2=[N+](Cc3ccccc3)CCN2)c(C)c1C,·,0.53
CCc1cc2c(=O)c(-c3ccc(F)cc3)c(C)oc2cc1OCC(=O)O,-0.35,0.43
CCn1c(-c2ccc3c(c2)OCCO3)cnc1SC(C)C(=O)NC(N)=O (stereo not drawn),-0.8,·
NC(=O)CSc1nnnn1-c1cccnc1,-0.2,·
CC(CO)(CO)NC(=O)Cc1cc(=O)[nH]c(=O)[nH]1,-0.9,·
O=C(Nc1ccccc1C(F)(F)F)c1ccccc1Cl,1.6,-0.26
COC(=O)c1ccccc1NC1=NCCS1,-0.5,0.97
CCOC(=O)Cc1csc2nc(-c3ccccc3)nn12,1.1,0.015
O=C1NCCc2c(OCC(=O)N3CCCc4ccccc43)cccc21,0.4,·
CC(=O)N/C(=C\c1ccc(F)cc1)C(=O)NC(Cc1c[nH]c2ccccc12)C(=O)O (stereo not drawn),·,-0.39
O=C(COC(=O)c1ccccc1)NCC1CCCO1 (stereo not drawn),1.6,0.15
CCCCC#Cc1cncc(C(=O)O)c1,0.75,1.2
CCC(CC)C(=O)Nc1nc(-c2ccccc2)cs1,-0.55,0.08
CC(OC(=O)c1nsc(Cl)c1Cl)C(=O)NCc1cccs1 (stereo not drawn),0.55,·
CN1C(=CC#N)N(C)c2ccccc21,-0.15,·
CCCc1c(SC(=O)N(C)C)ccc2c(C)cc(=O)oc12,·,4.9
COc1ccc(OC(C)C(=O)Nc2ncn[nH]2)cc1 (stereo not drawn),1.9,-0.62
CC(C)c1ccc(-c2c3c(nc4ncnn24)-c2ccccc2C3=O)cc1,1.5,-0.12
S=C(Nc1ccccc1)N1CCn2cccc2C1c1cccs1 (stereo not drawn),0.05,·
COc1ccc(CC(=O)Nc2cccc(-c3ccc4nncn4n3)c2)cc1,0.4,·
COc1ccc(Br)cc1CN(C)C(=O)c1ccno1,0.05,·
Cc1ccc(-c2csc(CC(N)=O)n2)cc1,-0.65,-0.21
COc1ccc(C2=NN(CC(=O)NCc3ccc4c(c3)OCO4)C(=O)CC2)cc1,1.9,1.6
O=C(CSc1nc2[nH]ncc2c(=O)n1-c1ccc(Br)cc1)c1ccc(Br)cc1,·,-0.46
CC(=O)Nc1ccc(OC(=O)c2cccs2)cc1,0.25,0.43
COc1ccccc1NC(=O)CSc1nc2ccccc2n1S(=O)(=O)c1cc([N+](=O)[O-])ccc1C,·,-0.84
CN1c2ccccc2-c2nc(SCC(=O)c3ccc4c(c3)OCO4)ncc2S1(=O)=O,0.25,3.3
N#Cc1c(N2CCCC(O)C2)nc(N)c2c(N)nc3c(c12)CC(=O)N3C12CC3CC(CC(C3)C1)C2 (stereo not drawn),1.3,·
CCCCOc1ccc(NC(=O)c2sc3nc(N)c(C#N)cc3c2N)cc1,·,-0.45
CCS(=O)(=O)c1ccc(O)c(N=Cc2ccc[nH]2)c1,-0.5,0.18
CCCc1c(C)c2c(OCC)cc(OCC)cc2oc1=O,-0.8,8.3
CCOC(=O)N1CCN(C(=O)CSc2nc3c(c(=O)n2-c2ccc(F)cc2)SCC3)CC1,·,0.36
COc1ccc(CCNC(=O)CCCn2c(SCC(=O)NCCc3ccccc3)nc3ccccc3c2=O)cc1OC,·,-1
COC(=O)CC1C(=O)NCCN1C(=O)c1ccc(Cl)cc1 (stereo not drawn),-0.1,·
CC(C)(C)C(=O)Nc1cccc(-c2cc(-c3c(Cl)cccc3Cl)no2)c1,2,-0.39
CN(C)C(=O)Oc1ccc(Br)cc1C(=O)Nc1ccc(F)cc1,-0.75,-0.26
Cn1c(O)c(C2=c3ccccc3=NC2=O)c2ccccc21,1.6,-0.82
Cc1cc(C)c(C)c(I)c1C,·,-0.47
Clc1cccc(Cl)c1-c1noc(-c2ccno2)n1,-0.8,-0.28
CCOC(=O)c1c(NC(=O)c2ccccc2)sc2c1CCCC2,-0.6,0.81
CC1CC(N2CNC(=S)NC2)CC(C)(C)C1 (stereo not drawn),·,-0.18
O=C(OCC(=O)N1CCc2ccccc21)c1ccccc1,-0.35,·
CC(C)(C)C(=O)Nc1ccccc1NC(=O)C(C)(C)C,-0.7,0.3
COC(=O)c1ccc(CSc2nc(-c3cccs3)cc(C(F)(F)F)n2)cc1,0.5,-1
CC1(C)CC(=O)C2=C(C1)OC1=C(C(=O)CC(C)(C)C1)C2c1ccc(O)cc1,·,-0.23
Cn1c(=O)cc2c3c(c(N4CCOCC4)ccc31)C(=O)c1ccccc1-2,·,-0.095
Cc1ccc2c(c1)N(CCCC(=O)N1CCCCC1)C(=O)CO2,0.65,11
O=C(CSc1ccccc1C(=O)N1CCN(c2ncccn2)CC1)NC12CC3CC(CC(C3)C1)C2,0.2,·
Cc1ccc(-c2nc(-c3ccc(-c4ccccc4)cc3)c(-c3ccc(-c4ccccc4)cc3)[nH]2)cc1,·,-0.47
CC1(C)NN1CCCN1NC1(C)C (stereo not drawn),-0.8,0.08
N#C/C=C\Oc1ccc(Cl)cc1N,-0.4,-0.29
O=C(Cn1cncn1)N/N=C/c1cc(Br)ccc1O,-0.65,·
CC(N/C=C1\C(=O)C2(C)CCC1C2(C)C)c1ccccc1 (stereo not drawn),0.05,-0.38
Cn1c(SCc2ccc(F)cc2)nnc1C1COc2ccccc2O1 (stereo not drawn),1.4,-0.045
Cc1nnc(SCCc2ccccc2)[nH]c1=O,0.35,0.065
# Additional records:
SMILES,AID504770,CapD inh
CC(C)(C)c1ccc(C(=O)N2CCC(NC(=O)C3CCCCC3)CC2)cc1,-0.6,1.3
CN(C(=O)CSc1nc(N)nc(N)n1)C1CCCc2ccccc21 (stereo not drawn),-0.55,·
O=C(CSc1nnc(-c2ccccc2)n1Cc1ccccc1)c1cccs1,0,-0.21
N#CC(C(=O)c1ccccc1)=C1SCCS1,-0.85,-1.5
COCC(C)Nc1nc(-c2ccc(OC)cc2OC)cs1 (stereo not drawn),-0.3,·
Cc1ccc(NS(=O)(=O)c2ccc(NC(=O)CN3C(=O)c4cccc5cccc3c45)cc2)cc1,0.25,0.56
N#CC(=C1CCCCC1)c1nc(-c2ccccc2O)cs1,·,0.1
COC(=O)C(C)Sc1cc(C)c2ccccc2n1 (stereo not drawn),-0.5,·
Cc1c(C)c(C)c(I)c(C)c1C,·,-0.24
CN(C)c1ccc(C(O)c2nnc(-c3ccccc3)o2)cc1 (stereo not drawn),-0.3,·
CCCCc1cc(=O)oc2c(CN3CCCC3)c(O)c(Cl)cc12,-0.3,89
CCOC(=O)c1oc2ccccc2c1NC(=O)c1ccc(S(=O)(=O)N(C)C)cc1,-0.75,1.1
CCOP(=S)(Nc1cccc(F)c1)OCC,1.9,-0.35
O=C(NC(C(F)(F)F)C(F)(F)F)OC1CCCC1,-0.45,58
Clc1ccc(/C=N\n2cnnc2)c(Cl)c1,-1.2,-0.44
O=C(c1cccc(C(F)(F)F)c1)N1CCN(C/C=C/c2ccccc2)CC1,·,0.35
CC1C(=O)C(C)C(c2ccc3c(c2)OCO3)NC1c1ccc2c(c1)OCO2 (stereo not drawn),-0.15,0.1
Cc1csc2nc(CSc3nnc4n3CCCCC4)cc(=O)n12,0.35,·
COc1cccc(C(=O)N/N=C/c2ccc(CO)o2)c1,·,-0.48
O=C(O)c1cccc(Cl)n1,-0.25,1

# Laid out differently: results already given
mol | AID504770 | CapD inh
CC1C(=O)C(C)C(c2ccc3c(c2)OCO3)NC1c1ccc2c(c1)OCO2 (stereo not drawn) | -0.15 | 0.1
Cc1csc2nc(CSc3nnc4n3CCCCC4)cc(=O)n12 | 0.35 | ·
COc1cccc(C(=O)N/N=C/c2ccc(CO)o2)c1 | · | -0.48

# The results go on:
SMILES,AID504770,CapD inh
c1cncc(-c2n[nH]c(-c3cccnc3)n2)c1,·,0.045
OCCn1c(-c2ccc(F)cc2)csc1=Nc1cccc(Cl)c1,-0.2,-0.58
O=C1CCC(=O)N1Oc1ncc(C(F)(F)F)cc1Cl,-0.55,0.36
COCCCn1c(C)cc(C(=O)COC(=O)c2cccc(NS(C)(=O)=O)c2)c1C,-0.3,·
O=C(CCCn1c(=O)oc2ccccc21)NCCc1ccc2c(c1)OCCO2,-1.4,·
COc1cc(S(=O)(=O)NCc2ccc3c(c2)OCO3)c(C)cc1C,-0.65,-0.07
COc1cccc2sc(NC(=O)c3ccc(S(=O)(=O)N(C)C)cc3)nc12,0,-0.17
Cc1nc2c3ccccc3n3c(CCCC(=O)NC4CCCCC4)nnc3n2n1,1.4,1.3
CC(CCc1ccccc1)NC(=O)NC1CC(=O)N(c2ccccc2)C1 (stereo not drawn),-0.75,·
CN(Cc1cccs1)S(=O)(=O)c1cn(C)c(=O)n(C)c1=O,-0.1,·
CCCOc1ccc(Cc2c(O)nc(N)[nH]c2=O)cc1C,-0.2,·
CC1CCCN(c2ccc(C3Nc4ccc5ccccc5c4C4=C3C(=O)CC(C)(C)C4)cc2[N+](=O)[O-])C1 (stereo not drawn),·,-0.21
O=S(=O)(NCCC(c1ccccc1)c1ccccc1)c1cccc(Cl)c1Cl,·,-0.46
O=[N+]([O-])c1ccc(N2CCC(=NOCc3ccc(Cl)cc3)CC2)cc1,·,-0.32
O=C(c1ccc(CS(=O)c2ccccc2Cl)o1)N1CCc2ccccc21 (stereo not drawn),-0.45,-0.79
CC1=NN(c2nc3ccccc3[nH]2)C(=O)/C1=C/N(C)C,0.15,·
COc1ccc(C)cc1S(=O)(=O)N1CCC(C(=O)c2ccc(F)cc2)CC1,·,-0.19
O=C(c1ccco1)N1CCN(S(=O)(=O)c2ccc3c(c2)C(=NO)c2cc(S(=O)(=O)N4CCN(C(=O)c5ccco5)CC4)ccc2-3)CC1,·,-0.11
CCOC(=O)C1CCN(C(=O)c2ccc(N3CC4CC(C3)c3cccc(=O)n3C4)c(NC(=O)c3ccc(F)cc3)c2)CC1 (stereo not drawn),·,-0.28
Cn1c2c(c(=O)n(C)c1=O)CN(CCc1ccccc1)CN2,·,-0.1
O=C(NCc1ccccn1)c1cccnc1SCCS(=O)(=O)c1cccc(C(F)(F)F)c1,0.15,-0.12
Cc1ccc(SCCC(=O)O)cc1C,-0.15,·
CCc1ccccc1NC(=O)c1cc(C)no1,0.35,-1.4
CCC(C(=O)Nc1cc(C)ccc1C)n1nnc(C(=O)O)c1C(=O)O (stereo not drawn),1.6,-0.57
NP1(=O)C=C(c2ccccc2)OC(c2ccccc2)=C1,1.1,·
O=C(Nc1ccccc1)c1csc(C2COc3ccccc3O2)n1 (stereo not drawn),-0.95,-0.22
C=CCN1C(=O)/C(=C\c2ccc(N3CCOCC3)cc2C)C(=O)NC1=S,-0.3,-0.56
Cc1ccc2c(c1)N(CC(=O)NC(C)(C)C)C(=O)C(C)O2 (stereo not drawn),0,·
O=[N+]([O-])c1cc(C(F)(F)F)ccc1Oc1ccc(F)cc1,·,0.17
CC(C)(C)C(=O)N1CCN(c2ncc(-c3ccc(Cl)cc3)cn2)CC1,·,0.52
CCNCC(=O)Nc1ccc(Br)cc1,-0.1,·
COc1ccc(OC)c(N2CC(O)(c3cccc([N+](=O)[O-])c3)[N+]3=C2SCCC3)c1 (stereo not drawn),·,-0.05
O=C(O)C1CC(=O)N(C2Cc3ccccc3C2)C1 (stereo not drawn),1.2,0.48
O=S(=O)(c1ccc(Br)cc1OC(F)(F)F)N1CCN(c2ccc(Cl)cc2)CC1,·,-0.74
Cc1cccc(C)c1NC(=O)C1(N2CCN(C(=O)c3ccco3)CC2)CCCCC1,-0.75,0.48
COc1ccc(/C=C2/SC(=S)N(CC(=O)O)C2=O)cc1OCc1ccc(Cl)cc1Cl,·,-0.34
COc1cc(NC(=O)CC2NC3CCCCC3NC2=O)cc(OC)c1 (stereo not drawn),-0.45,0.17
COc1ccc(-n2nnc3c(SCC(=O)Nc4cccc(C(F)(F)F)c4)ncnc32)cc1,2.4,-0.2

# Among those listed so far, 19 contain an aryl thioether with sulfur outside any ring:
SMILES,AID504770,CapD inh
Cc1cc(C)nc(Sc2ccc(NC(=O)CCl)cc2)n1,·,-0.23
CCn1c(-c2ccc3c(c2)OCCO3)cnc1SC(C)C(=O)NC(N)=O (stereo not drawn),-0.8,·
NC(=O)CSc1nnnn1-c1cccnc1,-0.2,·
O=C(CSc1nc2[nH]ncc2c(=O)n1-c1ccc(Br)cc1)c1ccc(Br)cc1,·,-0.46
COc1ccccc1NC(=O)CSc1nc2ccccc2n1S(=O)(=O)c1cc([N+](=O)[O-])ccc1C,·,-0.84
CN1c2ccccc2-c2nc(SCC(=O)c3ccc4c(c3)OCO4)ncc2S1(=O)=O,0.25,3.3
CCOC(=O)N1CCN(C(=O)CSc2nc3c(c(=O)n2-c2ccc(F)cc2)SCC3)CC1,·,0.36
COc1ccc(CCNC(=O)CCCn2c(SCC(=O)NCCc3ccccc3)nc3ccccc3c2=O)cc1OC,·,-1
COC(=O)c1ccc(CSc2nc(-c3cccs3)cc(C(F)(F)F)n2)cc1,0.5,-1
O=C(CSc1ccccc1C(=O)N1CCN(c2ncccn2)CC1)NC12CC3CC(CC(C3)C1)C2,0.2,·
Cn1c(SCc2ccc(F)cc2)nnc1C1COc2ccccc2O1 (stereo not drawn),1.4,-0.045
Cc1nnc(SCCc2ccccc2)[nH]c1=O,0.35,0.065
CN(C(=O)CSc1nc(N)nc(N)n1)C1CCCc2ccccc21 (stereo not drawn),-0.55,·
O=C(CSc1nnc(-c2ccccc2)n1Cc1ccccc1)c1cccs1,0,-0.21
COC(=O)C(C)Sc1cc(C)c2ccccc2n1 (stereo not drawn),-0.5,·
Cc1csc2nc(CSc3nnc4n3CCCCC4)cc(=O)n12,0.35,·
O=C(NCc1ccccn1)c1cccnc1SCCS(=O)(=O)c1cccc(C(F)(F)F)c1,0.15,-0.12
Cc1ccc(SCCC(=O)O)cc1C,-0.15,·
COc1ccc(-n2nnc3c(SCC(=O)Nc4cccc(C(F)(F)F)c4)ncnc32)cc1,2.4,-0.2
